Screens from PubChem BioAssay.
BJeLR lethal = BJeLR cell viability loss; 0.17% of 300,000 active; inhibition, % (no concentration beside the values); BJeLR (HRASV12) viability, CellTiter-Glo ATP luminescence, 48 h; reference of the scale not given here; AID 1554;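 active means replicate mean above 50%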;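 further: 50 nL library stock added to about 25 µL; numbers are from one replicate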
Sa ugtP lethal = compounds lethal to S. aureus RN4220 ugtP deletion mutant; 0.54% of 330,000 active; AID 1259309; growth inhibition, % (no concentration beside the values); OD600 growth, 16 h; some inactives read as strong as hits;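 active means z-score under -3 and OD600 up to 0.15 on both plates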;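 further: plate controls were untreated wells for no effect and antibiotic for full effect; wells of about 80 µL received 100 nL stock; the first replicate is given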
Autofluor counter = counter-screen for toxin protease inhibitors: compound fluorescence. compound autofluorescence counterscreen, microsphere flow cytometry; hits give high values. AID 624483. 3.1% of 360,000 active. fluorescence intensity (no concentration beside the values);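 active means at least 3 SD above the mean of all compounds, about 16000 in these data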;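 further: 100 nL of 1 mM stock went into each well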
RN4220 kill = kills Staphylococcus aureus RN4220 | S. aureus RN4220 growth, OD600, 16 h | inhibition, % (no concentration beside the values) | AID 1259311 | 0.33% of 330,000 active;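 active means z-score of -3 or lower and OD600 up to 0.18 on both plates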;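 further: plate controls were untreated cells for no effect and reference antibiotic for full effect; stock transfer was 100 nL into about 80 µL; one replicate is shown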
PrP 5UTR inh = inhibition of PrP 5' UTR reporter expression. cell-based PrP 5' UTR mRNA reporter, plate reader. 0.35% of 340,000 active. inhibition, % (test concentration not listed);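 active means every replicate at 50% or more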;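 further: 0 = median of the neutral control wells; tested in H4 reporter cells; numbers are from one replicate; inactives centre near -14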
Mtb hypoxia inh = reduces hypoxia-regulated biosensor signal in M. tuberculosis; M. tuberculosis hypoxia-regulated fluorescent reporter, fluorescence; fluorescence inhibition, % (no concentration beside the values); 0.1% of 300,000 active; AID 1159583;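 active means 35 to 45% if threefold the growth effect, above 45% if 1.5-fold the growth effect; inactive means the rest, general growth blockers included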;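 further: wells of about 50 µL received 100 nL stock; 0% = vehicle wells and 100% = reference inhibitor wells; whole bacteria with a GFP reporter of the hypoxia response; strong numbers were not always called active; many hits fall short of the cut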
Mtb hypoxia inh growth = further read-out of Mtb hypoxia inh, marked with its call; growth inhibition, %; measured here: M. tuberculosis growth (absorbance);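 0% = vehicle and 100% = reference antibiotic; read after six days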
Numbers without * were called inactive; · = not tested or not shown; & = joins results of further samples. Outcome played no part in choosing rows; overall some 3.9% were active at least once.

No.	molecule	BJeLR lethal	Sa ugtP lethal	Autofluor counter	RN4220 kill	PrP 5UTR inh	Mtb hypoxia inh	Mtb hypoxia inh growth
1	CCOc1ccc(NC(=O)CSc2nnc(C)n2CC2CCCO2)cc1 (stereo not drawn)	3	1	4861	4.8	-15	·	·
2	CN(C)c1ccc(/C=C2\SC(=O)N(CC(O)Cn3c4ccccc4c4ccccc43)C2=O)cc1 (stereo not drawn)	-12	0	2140	2.7	-14	12	7
3	Cc1ccc(OCCn2cc(C(=O)O)c3ccccc32)cc1	0	2	3548	4.0	-19	6	-5
4	O=C(Cn1c(CCCO)nc2ccccc21)Nc1ccccc1-c1ccccc1	-11	4	2957	-3.6	-8	7	3
5	CCN(CC)Cc1cc(C(=O)O)c(C)o1	-3	3	8867	4.1	-6	-1	-2
6	Cc1ccccc1OCC(=O)Nc1cccc(Cl)c1C	-5	14	3705	3.7	-36	4	10
7	CC(C)Cn1nc(NC(=O)c2cccs2)c2cc3ccccc3nc21	2	-26	3873	7.8	-12	-20	-11
8	O=C(CSc1ccc(-c2cccnc2)nn1)Nc1ccc(Br)cc1	-5	9	·	4.6	-17	6	7
9	CC1=C(C(=O)OC2CCCCCCC2)C(c2ccc(O)cc2)NC(=O)N1 (stereo not drawn)	5	-7	10464	7.5	-21	5	2
10	O=[N+]([O-])c1ccccc1S(=O)(=O)Nc1ccc(S(=O)(=O)N2CCOCC2)cc1	4	-6	4251	3.1	-1	6	-1
11	CCCn1c(N)c(C(=O)CSc2nc(C)nc3sc(C)c(C)c23)c(=O)[nH]c1=O	-3	3	4359	3.1	-11	0	-2
12	COc1ccc(N2CCN(c3oc(Cc4ccccc4)nc3C#N)CC2)cc1	-9	1	11234	3.1	-30	5	5
13	C#CCNC(=O)C1=CC(C2CCCCC2)CC(OCc2ccc(CO)cc2)O1 (stereo not drawn)	·	-6&4	·	12&4.9	·	7&14	6&18
14	COc1ccc(S(=O)(=O)N2CCOC2CNC(=O)C(=O)NCCN(C)C)cc1 (stereo not drawn)	2	1	5585	0.0	-24	-2	5
15	COc1ccc(CNC(=O)CCNC(=O)N2CCn3c2nc2ccccc23)cc1	5	-6	5620	4.2	-7	19	6
16	CCCn1c(SCC(=O)c2c(N)n(C3CC3)c(=O)[nH]c2=O)nnc1-c1ccncc1	·	3	·	3.9	-27	-1	-2
17	CNC(=S)N(Cc1ccc(OC)cc1)Cc1cc2ccc(C)cc2[nH]c1=O	-5	-3	3283	3.6	2	-1	9
18	COc1cccc(-n2cc(CNCc3cn(C)nc3-c3ccccc3F)cn2)c1	7	3	10744	5.4	6	0	1
19	O=C(CN(Cc1ccco1)C(=O)CNS(=O)(=O)c1ccc(Cl)cc1)NC1CCCCC1	3	-10	5037	0.5	-7	·	·
20	Cc1cc(Cl)ccc1OCC(=O)N(Cc1ccco1)c1c(N)n(Cc2ccccc2)c(=O)[nH]c1=O	·	-7	3180	1.6	-2	4	-1
21	COc1ccc(C2C(C(N)=O)=C(C)Nc3ncnn32)cc1 (stereo not drawn)	7	0	10229	0.7	-10	-2	6
22	COc1cc(/C=C(\C#N)C(=O)Nc2cc(C(F)(F)F)ccc2Cl)ccc1OCC(=O)Nc1cccc(C(F)(F)F)c1	0	·	2048	·	-18	·	·
23	O=C(Nc1nccs1)c1cc(Cl)nc2ccccc12	-3	9	3824	4.3	-12	9	-2
24	COc1ccc2[nH]c3c(=O)n(Cc4ccc(C(=O)N5CCCCCC5)cc4)c(=S)[nH]c3c2c1	-7	-12	4560	-2.6	-26	-5	-3
25	COc1cc(CNc2ccc3[nH]c(=O)[nH]c3c2)ccc1OCc1cccc(C)c1	0	0	3709	4.5	-24	17	11

Compound profiles (already shown):
CC(C)Cn1nc(NC(=O)c2cccs2)c2cc3ccccc3nc21 across the screens: BJeLR lethal = 2; Sa ugtP lethal = -26; Autofluor counter = 3873; RN4220 kill = 7.8; PrP 5UTR inh = -12; Mtb hypoxia inh = -20; Mtb hypoxia inh growth = -11
CCCn1c(N)c(C(=O)CSc2nc(C)nc3sc(C)c(C)c23)c(=O)[nH]c1=O across the screens: BJeLR lethal = -3; Sa ugtP lethal = 3; Autofluor counter = 4359; RN4220 kill = 3.1; PrP 5UTR inh = -11; Mtb hypoxia inh = 0; Mtb hypoxia inh growth = -2

Further entries.
No.	molecule	BJeLR lethal	Sa ugtP lethal	Autofluor counter	RN4220 kill	PrP 5UTR inh	Mtb hypoxia inh	Mtb hypoxia inh growth
26	COC(=O)c1c(C(C)=O)cnc2ccc(Br)cc12	-2	-5	2485	-5.8	-9	10	7
27	OCC(O)C=NNc1nc2ccccc2s1 (stereo not drawn)	·	-2	·	4.8	·	5	5
28	O=C(Nc1ccc(Cl)c(Cl)c1)OCCNC(=O)c1cccc(Cl)c1	-3	-34	2793	-20	-8	·	·
29	CCc1cc(OCCN2C(=O)NC(C)(C)C2=O)ccc1Cl	0	-4	20493*	7.3	-16	16	11
30	NC(=O)C1=C[C@@H](c2ccc(Br)cc2)C[C@@H](OCc2ccc(CO)cc2)O1	2	·	3492	·	8	·	·
31	COCCCNC(=S)NNC(=O)c1ccccc1Br	-10	0	4816	3.0	-7	2	5
32	CCOc1ccccc1NC(=O)c1oc2ccccc2c1NC(=O)C1CC1	6	-13	4654	-1.1	7	-3	-7
33	Cc1cc(=O)n(Cc2ccccc2)c(O)c1C#N	10	2	·	4.7	-13	7	-2
34	CC(NC(=O)c1cccc(S(=O)(=O)N2CCN(C)CC2)c1)c1ccc(Cl)cc1Cl (stereo not drawn)	13	7	5106	3.0	11	4	4
35	CCOC(=O)c1sc2c(c1C)c(=O)n(Cc1ccccc1)c(=O)n2CCN(C)C	-13	15	4086	5.7	-12	9	8
36	COc1ccc(C(O)P(=O)(OCCC(C)C)c2ccc(N(C)C)cc2)cc1OC (stereo not drawn)	-13	0	4733	2.8	-9	10	1
37	O=C(N/N=C/c1cc(Cl)ccc1O)c1cccnc1	14	·	4074	·	13	·	·
38	O=C(NC1CCCCC1)c1sc(=S)n2c1[nH]c(=O)c1ccccc12	0	100*	9270	100*	-22	3	10
39	Cc1ccc(C)c(N(CC(=O)NCCC2=CCCCC2)S(C)(=O)=O)c1	-5	0	7992	7.3	-4	-1	-3
40	O=C1NC(=O)C(=Cc2ccc(Cl)c(Cl)c2)S1	·	65	3667	76	0	12	8
41	CC12CCC(C(=Nc3ccc(N=C4C(=O)C5(C)CCC4C5(C)C)cc3)C1=O)C2(C)C	0	8	·	4.9	·	8	14
42	OCCN(Cc1ccccc1)Cc1nc(CC2CC2)no1	-5	2	4045	3.3	-22	3	-4
43	O=C(c1ccc(CS(=O)Cc2ccccc2Cl)o1)N1CCN(c2ccccn2)CC1 (stereo not drawn)	-15	0	4348	0.4	3	-2	4
44	CCO[C@H]1OC(C(N)=O)=C[C@@H](C)[C@@H]1CCCO	0	·	4017	·	-18	·	·
45	COc1ccc(COC(=O)c2ccc(C)c(S(=O)(=O)N3CCOCC3)c2)cc1F	3	7	6218	2.5	-9	-1	2
46	O=C(CCc1nnc(Cc2cccc(C(F)(F)F)c2)o1)NCC(F)(F)F	0	-1	2132	2.2	-44	13	5
47	Cc1nc(SCC(=O)c2cccs2)c2oc3ccccc3c2n1	-8	-10	9112	29	-35	7	17
48	O=C(CSc1nnc(-c2cccnc2)n1Cc1ccco1)c1ccccc1	8	-5	2762	4.5	-10	-1	7
49	CCOC(=O)C1CCCN(C(=O)CS(=O)(=O)Cc2ccccc2)C1 (stereo not drawn)	-13	-2	4304	3.6	-5	-2	13
50	CC(=O)c1sc(NC(=O)c2ccccc2C)nc1C	1	1	4294	4.7	-41	6	5

The listing continues:
No.	molecule	BJeLR lethal	Sa ugtP lethal	Autofluor counter	RN4220 kill	PrP 5UTR inh	Mtb hypoxia inh	Mtb hypoxia inh growth
51	CC(C)(Oc1ccc(Cl)cc1)C(=O)NCc1ccc(S(N)(=O)=O)cc1	·	3	4997	1.0	-22	10	15
52	COCCCNC(=S)N1CCC(C(=O)c2ccc(Cl)cc2)CC1	-11	4	3172	-2.9	-1	-6	-4
53	Cc1c(C)c2ccc(OCC(=O)N[C@@H](Cc3c[nH]c4ccccc34)C(=O)O)cc2oc1=O	2	11	3960	0.7	-3	·	·
54	CCn1c(SCc2nc3ccccc3[nH]2)nnc1-c1ccncc1	-14	2	4858	-0.1	-14	-9	-3
55	Cc1ccc(-c2cc(C)nc3ncnn23)cc1	-10	-5	5859	3.2	-17	·	·
56	c1ccc(-n2ncc3c(NCc4ccco4)ncnc32)cc1	5	1	4727	2.7	-70	·	·
57	Cc1ccc(NC(=O)c2ccccc2[N+](=O)[O-])nc1	8	3	2280	4.0	-12	1	-3
58	CN(Cc1ccccc1)c1oc(-c2ccco2)nc1C#N	-8	-7	3201	-8.5	3	5	4
59	O=[N+]([O-])c1ccccc1S(=O)(=O)N1CCN(c2ccccn2)CC1	-9	4	3724	5.0	-17	-5	0
60	CC1(C)N(O)CC(c2cccs2)=[N+]1[O-]	2	-6	9607	10	-34	9	6
61	O=C(NN=Cc1cccc(OC(=O)c2ccc([N+](=O)[O-])cc2)c1)c1cccnc1	·	6	·	4.8	·	10	0
62	O=C(NC1CCN(CC(=O)N(c2ccccc2)c2ccccc2)CC1)c1ccc([N+](=O)[O-])cc1	-4	10	3203	1.0	-10	13	7
63	OCC1(CC2CCCCO2)CCN(C/C=C/c2ccccc2)CC1 (stereo not drawn)	-6	2	4306	4.0	-20	6	-5
64	Cc1cccc(OCC(=O)Nc2ccc(C(=O)NCC(C)C)cc2)c1	3	-3	4247	0.0	-5	-3	5
65	O=C(O)c1ccc(-n2c(-c3cc(-c4ccco4)[nH]n3)n[nH]c2=S)cc1	6	6	3289	16	-22	3	14
66	CC(C)c1ccccc1NC(=S)NN(Cc1ccccc1)c1ccccc1	0	-5	3796	3.1	-11	1	5
67	COc1ccc(S(=O)(=O)N2CCCCCC2)cc1C(=O)N1CCN(c2ccccc2O)CC1	-7	-5	·	4.4	-85	6	2
68	CC1C(=O)OC2CC34C5CC(C(C)(C)C)C36C(OC(=O)C6O)OC4(C(=O)O5)[C@]21O (stereo partly drawn)	·	15	·	20	·	14	4
69	CC(C)C(=O)Nc1nc(-c2ccc([N+](=O)[O-])cc2)cs1	13	7	4448	8.1	-27	8	9
70	CC1CC(C)CN(CCCNC(=O)c2ccc3nc(N4CCCCC4)sc3c2)C1 (stereo not drawn)	12	3	6230	-1.1	-12	10	10
71	COc1ccc(Br)c(C(=O)N(C)CC(=O)Nc2ccc(N3CCOCC3)cc2)c1	0	1	21018*	4.9	-15	8	-2
72	COc1ccccc1-n1c(C)nc(=O)c(-c2ccccc2)c1C	-8	3	4091	4.9	-5	12	7
73	Cn1c(N)c(C(=O)CSc2nn(-c3ccccc3)c(=S)s2)c(=O)n(C)c1=O	·	-7	5575	1.7	-9	12	1
74	O=C(CN1CCCN(Cc2ccc(F)cc2)S1(=O)=O)NC1CCCC1	-9	7	6185	1.9	-16	-2	-2
75	CCCCC(=O)N/N=C/c1c(O)n(Cc2ccco2)c(=O)[nH]c1=O	-1	5	2211	3.1	-10	4	3

The list goes on:
No.	molecule	BJeLR lethal	Sa ugtP lethal	Autofluor counter	RN4220 kill	PrP 5UTR inh	Mtb hypoxia inh	Mtb hypoxia inh growth
76	C=CCn1c(-c2sc3nc(C)cc(C)c3c2N)n[nH]c1=S	-7	4	·	7.3	·	3	-2
77	Cc1cccc(N2CN(Cc3cccnc3)CNC2=S)c1C	-2	9	7538	2.2	-4	12	13
78	COc1cccc(C=NNc2nc3ccccc3s2)c1OC	·	-5	3553	-0.6	-72	18	10
79	C/C=C/Cn1c(SCCCc2ccccc2)nc2c1c(=O)[nH]c(=O)n2C	7	-15	6754	-1.0	-9	2	6
80	O=C(CCSc1ccccc1)NCc1cccnc1	-7	9	2011	7.6	-9	0	5
81	CCOc1c(Br)cc(/C=C2/SC(=O)N(CC(=O)N3CCCC3)C2=O)cc1OC	2	·	9635	·	-6	·	·
82	C#C[C@]1(O)CCC2C3CCC4=CC(=O)CC[C@@H]4C3CC[C@@]21C (stereo partly drawn)	-4	·	5701	·	-2	·	·
83	CCN(CC)CCCNC(=O)C1CCN(c2ncnc3c2sc2cccc(F)c23)CC1	5	3	4598	3.7	-7	10	-3
84	O=C(COc1ccccc1Br)Nc1ccccc1C(F)(F)F	-3	14	3259	5.4	-11	-5	0
85	COc1ccccc1N1CCN(C(=O)C(C)N(c2ccc(C)cc2)S(C)(=O)=O)CC1 (stereo not drawn)	-13	9	4039	6.1	7	·	·
86	Cc1nc2c(c(=O)n1CCC(C)C)c1nc3ccccc3nc1n2Cc1ccc2c(c1)OCO2	-8	2	·	1.5	·	-1	2
